Bioassay records as filed in PubChem.
Hsc70 = Hsc70 inhibitors, probe displacement, primary screen, biochemical, fluorescence polarization (AID 568); Heat shock cognate 71 kDa protein (Homo sapiens); Hsc70 fluorescence polarization, probe displacement; higher % means a stronger effect; strong numbers were not always called active; displacement, % at 20 µM, or IC50 in µM where a hit was titrated; 83,000 tested, under 10 active;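 active means displacement above 50% without optical interference and an IC50 on retest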;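 further: ATPase domain with a fluorescein-tagged ATP probe; 0% = vehicle and 100% = excess ADP; read after one hour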
MT1-MMP reporter = inhibitors of MT1-MMP promoter transcription, cell-based, luciferase reporter, luminescence (AID 618); MT1-MMP promoter luciferase reporter cells, luminescence; calls from a first round at 10 µM; hits with a dose series show EC50 in µM; hit rate 0.62% among 87,000;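 active means over half of the reporter light lost at 10 µM or EC50 under 50 µM; inactive means the rest and hits that failed the dose series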;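 further: actives suppress MT1-MMP promoter-driven transcription so potencies describe inhibitors; HT1080 fibrosarcoma cells; overnight exposure; toxic or luciferase-blocking compounds were not removed from the actives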
WNV protease inh = inhibitors of WNV NS2B-NS3 protease, primary screen, biochemical, fluorogenic substrate; hit rate 0.18% among 65,000; fluorogenic substrate Ex360/Em465; active compounds read low; AID 577, 2007; z-score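 (tested at a level between 10 and 100 µM)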;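 active means z-score at -3 or under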;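 further: score is relative to mean and spread of the compound wells of a plate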
Target sequence (P06935 1371-1501 limits assumed): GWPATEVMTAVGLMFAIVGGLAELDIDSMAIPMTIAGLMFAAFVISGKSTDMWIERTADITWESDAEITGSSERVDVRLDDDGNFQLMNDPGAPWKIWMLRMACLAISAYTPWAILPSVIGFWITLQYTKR
Target sequence (P06935 1502-1679 limits assumed): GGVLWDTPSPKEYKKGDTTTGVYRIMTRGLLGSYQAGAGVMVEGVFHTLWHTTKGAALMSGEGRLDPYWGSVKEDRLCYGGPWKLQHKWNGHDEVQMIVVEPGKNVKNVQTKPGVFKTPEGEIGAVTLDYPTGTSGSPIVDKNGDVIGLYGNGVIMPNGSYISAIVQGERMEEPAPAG
* marks the source's active call; other numbers are inactive results; i = inactive; / = no result given; + = active, no number; & = joins results of further samples.

SMILES	Hsc70	MT1-MMP reporter	WNV protease inh
Nc1nc(CN2CCN(Cc3ccc4c(c3)OCO4)CC2)nc(Nc2ccccc2)n1	-1.9%	i	0.2
Cc1cc(NC(=O)CCCSc2nc(-c3ccco3)cc(C(F)(F)F)n2)n(-c2ccccc2)n1	-1.8%	i	/
CCOC(=O)C1=C(C)Nc2ccc(C)cc2S1	-1.1%	i	/
O=C(COc1ccc2ccccc2c1)N1CCN(C(=O)c2cccnc2)CC1	3.7%	i	/
C=CCn1c(SCC(=O)N2CCN(C(=O)c3ccco3)CC2)nc2sc(CC)cc2c1=O	1.2%	i	0.99
Cc1oc2c(c1C(=O)c1ccccc1)C(=O)C(=O)c1ccccc1-2	3.4%	+	/
O=S(=O)(NCCC1=CCCCC1)c1cccc(S(=O)(=O)N2CCOCC2)c1	1.2%	i	0.25
COc1ccc(CNC(=O)C2CSCCS2)cc1 (centres undefined)	-1.9%	i	-0.28
CCCc1ccc(Oc2c(-c3ccc(O)c(C)c3O)n[nH]c2C)cc1	5.3%	i	1.1
O=C(NCc1ccncc1)C1CCCCC1	-1.4%	i	/
COc1ccc(CC(=O)OCc2nnc(C3COc4ccccc4O3)o2)cc1OC (centres undefined)	-2.7%	i	-0.27
CCCn1c(Nc2ccccc2C)nc2ccccc21	-1.4%	i	/
CC1=C(C(=O)OC(C)C)C(c2cccnc2)C2=C(CCCC2=O)N1 (centres undefined)	2.0%	i	1.2
CCc1ccc(NC(=O)CSc2nc3cc(C(=O)OC)ccc3c(=O)n2Cc2ccco2)cc1	-1.0%	i	0.43
CCn1c(SCC(=O)NCc2ccco2)nnc1-c1ccc(N)cc1	-5.7%	i	-0.87

The list goes on, overlapping the part above by four compounds.
SMILES	Hsc70	MT1-MMP reporter	WNV protease inh
CCCn1c(Nc2ccccc2C)nc2ccccc21	-1.4%	i	/
CC1=C(C(=O)OC(C)C)C(c2cccnc2)C2=C(CCCC2=O)N1 (centres undefined)	2.0%	i	1.2
CCc1ccc(NC(=O)CSc2nc3cc(C(=O)OC)ccc3c(=O)n2Cc2ccco2)cc1	-1.0%	i	0.43
CCn1c(SCC(=O)NCc2ccco2)nnc1-c1ccc(N)cc1	-5.7%	i	-0.87
COc1ccc2[nH]cc(C(=O)CN3CCN(C/C=C/c4ccccc4)CC3)c2c1	-2.9%	i	-0.72
COCCn1c(C)cc(C(=O)CSc2nnc(C)s2)c1C	0.9%	+	-0.47
O=C(NCCCN1CCCCC1)c1ccc2c(c1)NC(=O)C(N1CCCCC1)S2 (centres undefined)	-6.3%	i	-1.2
N#Cc1ccc(C(=O)NCC(c2ccco2)N2CCCCC2)cc1 (centres undefined)	-0.4%	i	/
O=c1[nH]cnc2c1C1(CCCC1)Cc1ccccc1-2	-1.2%	i	-1.2
CCN1CCN(C(c2cc(OC)c(OC)c(OC)c2)c2nnnn2C(C)C)CC1 (centres undefined)	1.2%	i	-0.63
COC1(OC)N=C(N)C2(C#N)C(c3ccc(C)cc3)C12C#N (centres undefined)	16%	i	0.46
COc1cccc(NC(=O)CSc2ccccn2)c1	-3.7%	i	-1
CN(C)C(=O)Cn1c(SCC(=O)NC2CCCCC2)nc2ccccc21	-6.1%	i	0.18
CCOC(=O)C1=C(C)NC(SC(C)=O)=NC1c1ccc(OC(C)=O)c(OC)c1 (centres undefined)	2.0%	i	-0.57
O=C(O)CC(SCc1ccc(C(=O)O)o1)C(=O)O (centres undefined)	-0.9%	i	-0.25
COc1ccc(C(=O)n2c(-c3ccco3)nc3ccccc32)cc1	0.6%	i	-0.56
COc1ccccc1N1CCN(Cc2cc(Br)c(O)c3ncccc23)CC1	-0.3%	i	3.9
O=C1c2[nH]nc(-c3ccccc3O)c2C(c2cccc(Cl)c2)N1CC1CCCO1 (centres undefined)	-5.8%	i	-0.38
CCc1nnc(NC(=O)CCC(=O)NCC2CCCO2)s1 (centres undefined)	1.2%	i	0.59
O=C(NCc1ccccc1F)c1cccs1	4.0%	i	1.7
COc1ccc(OC)c(S(=O)(=O)n2nc(C)cc2C)c1	5.0%	i	/
O=C(CSCc1cnn(-c2ccccc2)c1-n1cccc1)NCC1CCCO1 (centres undefined)	-3.4%	i	0.92
Cc1ccc(CC(=O)Nc2nncs2)cc1	-2.7%	i	-0.86
Cc1ccc(Nc2nc3c(c(=O)[nH]c(=O)n3C)n2Cc2ccc(F)cc2)cc1	-0.6%	i	/
Cc1nc2[nH]c(=O)c3c(n2n1)NC1=C(C(=O)CC(C)(C)C1)C3c1ccccc1 (centres undefined)	-6.3%	i	0.2
Cc1nc(CNS(=O)(=O)c2cc(F)ccc2F)cs1	0.8%	i	-0.47
COC(=O)NCC(c1cccnc1)N1CCN(c2ccccc2F)CC1 (centres undefined)	0.9%	i	-0.34
C=CCNC(=O)C(C(=O)OCC)C1CCCCC1 (centres undefined)	-0.5%	i	/
O=C(CCCCn1c(=O)c2ccccc2n(CC(=O)Nc2ccc(F)cc2)c1=O)NCc1ccco1	3.0%	i	-1.2
O=C(Nc1ccc2c(c1)OCO2)C1Cc2ccccc2CN1S(=O)(=O)c1cccs1 (centres undefined)	-0.1%	i	0.74
O=c1cc(C(F)(F)C(F)F)oc2ccccc12	-5.2%	i	/
O=C(Cc1ccccc1)Nc1ccc(NC(=O)C2CC2)nc1	2.1%	i	1.1
Cc1nn(C)c(C)c1S(=O)(=O)N(CC(=O)NCCN1CCOCC1)c1ccc(C(C)C)cc1	-4.8%	i	0.45
CC(=O)C(C(C)=O)C(NC(=O)c1cccnc1)(C(F)(F)F)C(F)(F)F	-10%	i	-0.31
CC(c1nnc(SCC(=O)N2CC(=O)Nc3ccccc32)n1Cc1ccccc1)N(C)C (centres undefined)	0.7%	i	/
O=C(Cn1cnc2ccccc21)Nc1cc(C(F)(F)F)ccc1N1CCOCC1	0.2%	i	1.3
Cc1cc(C(F)F)nn1CC(=O)NCc1ccccc1F	0.5%	i	/
CSCCC1C(C#N)=C(N)Oc2n[nH]c(-c3cccs3)c21 (centres undefined)	4.1%	i	-0.84
c1ccc2c(c1)Cc1cc(CN3CCOCC3)ccc1-2	-4.8%	i	0.22
C=CCn1c(=O)c2ccccc2n2c(SCc3nc(N)nc(Nc4ccccc4C)n3)nnc12	-0.9%	i	1.6
CNC(=O)CN(C1CCCCC1)S(=O)(=O)c1ccc(OC)c(Cl)c1	-8.7%	i	-0.22
Cc1cc(C)c2c3c(sc2n1)C(=O)N(Cc1ccccc1)CC(=O)N3	0.7%	i	/
Nc1nc(SCC(=O)C23CC4CC(CC(C4)C2)C3)n[nH]1	1.0%	i	-0.74
O=C(CN1CCCC1=O)NC1(C(F)(F)F)NC(=O)N(Cc2ccccc2)C1=O (centres undefined)	3.2%	i	0.24
Cc1ccc(-n2nnnc2SCC(=O)N2CCc3ccccc3C2)c(C)c1	-6.6%	i	0.68
COc1cccc(C2NC(=O)c3sc(=S)n(-c4ccccc4)c3N2)c1 (centres undefined)	2.6%	i	/
CC(C)CCN=Cc1c(O)n(-c2ccccc2)c(=O)c2ccccc12	2.4%	i	/
Cc1cc(NC(=O)CSc2nnc(-c3cccs3)n2N)no1	3.6%	i	/
CCn1c2ccccc2c2cc(NC(=O)c3ccco3)ccc21	-0.2%	i	-1.4

2 entries picked at random from those above, as already listed:
SMILES	Hsc70	MT1-MMP reporter	WNV protease inh
Cc1cc(C)c2c3c(sc2n1)C(=O)N(Cc1ccccc1)CC(=O)N3	0.7%	i	/
CC(C)CCN=Cc1c(O)n(-c2ccccc2)c(=O)c2ccccc12	2.4%	i	/

Next section
SMILES	Hsc70	MT1-MMP reporter	WNV protease inh
COc1ccc(OC)c(NC(=O)CCN2CCC(C)CC2)c1	-1.1%	i	0.3
COc1ccc(-c2nnn(CC(=O)c3ccccc3)n2)cc1OC	3.8%	i	0.85
CSc1ccccc1C(=O)Nc1cccc(C(C)O)c1 (centres undefined)	6.6%	i	-0.23
COc1ccc(CNC(=O)CN(Cc2ccccc2)S(=O)(=O)c2ccc(Cl)cc2)cc1	4.0%	i	/
CCn1cnc2sc(C(=O)N3CCN(c4ccc(OC)cc4)CC3)c(C)c2c1=O	-2.1%	i	0.97
CC(=O)/C=C(/C)NC(Cc1c[nH]c2ccccc12)C(=O)O (centres undefined)	-8.5%&0.7%	i	-0.72
COc1ccc(OC)c(N2C(=O)CC(Cc3ccc(Cl)cc3)C2=O)c1 (centres undefined)	0.1%	i	/
CS(=O)(=O)N(CC(=O)NCCSc1ccc(Cl)cc1)c1ccc2c(c1)OCO2	2.0%	i	3.1
CCCCC(CC)CNC(=O)c1ccc2c(c1)OCO2 (centres undefined)	2.2%	i	-0.27
Nc1nnnn1N=C1CCCCC1	-1.6%	i	0.08
Cn1nc(C(=O)NCc2ccccn2)c2ccccc2c1=O	11%	i	-0.61
COc1ccccc1N(CN1CCCC1=O)C(=O)c1c(F)cccc1F	-1.4%	i	-0.41
COc1cc(C2C(C#N)=C(C)NC3=C2C(=O)c2ccccc23)cc(OC)c1OC (centres undefined)	1.9%	+	-0.65
Cc1ccc(-c2ccc(/C=N/n3cnnc3)o2)cc1Cl	-4.7%	i	-0.95
CC(O)CNc1nc2c(c(=O)n(C)c(=O)n2C)n1Cc1cccc(Br)c1 (centres undefined)	-1.1%	i	-0.48
CCOC(=O)N1CCC(Nc2c(-c3ccc(C)cc3)c(=O)c2=O)CC1	-4.3%	i	1.1
O=C(NCc1ccco1)c1ccc(COCC(F)(F)F)cc1	-2.2%	i	-0.22
CCOC(=O)N1CCN(S(=O)(=O)c2c(C)[nH]c(=O)[nH]c2=O)CC1	0.1%	i	-0.77
Cc1ccc(S(=O)(=O)N2CCCN(S(=O)(=O)c3ccc(C)cc3)CC2)cc1	3.0%	i	0.14
CCn1c(=O)cc(OCC(=O)Nc2ccccc2C#N)c2ccccc21	3.9%	i	-1.7
CCOC(=O)N1CCC(NC(=O)C2CCCN2C(=O)OCc2ccccc2)CC1 (centres undefined)	-7.4%	i	0.27
O=C(CSc1nc2ccccc2[nH]1)N1CCN(c2ccccc2)CC1	4.3%	i	0.07
CC1=C(C(=O)OCC2CCCO2)C(c2ccncc2)C2=C(CCCC2=O)N1 (centres undefined)	-2.1%	i	-0.87
COc1cccc(C(=O)CSc2nnc(-c3ccco3)n2CC2CCCO2)c1 (centres undefined)	2.9%	i	-0.7
COc1ccc2oc(=O)c(C(=O)NCC3CCCO3)cc2c1 (centres undefined)	4.8%	i	-0.09
CCCCNc1c(C(=O)OCC)c(=O)[nH]c2ccccc12	-11%	i	1.4
CCOc1cc2[nH]c(=O)n(CC3CCC(C(=O)NC(C)CC)CC3)c(=O)c2cc1OCC (centres undefined)	0.7%	i	0.06
NCCc1nnc(SCc2ccc(F)cc2)o1	0.3%	i	-0.66
COc1ccc(C(O)CNc2ccc(C)cc2)cc1 (centres undefined)	4.9%	i	-0.12
COc1ccc(C2c3c(ccc4ccccc34)Oc3ncn4nc(CO/N=C/c5ccccc5)nc4c32)cc1 (centres undefined)	-2.0%	i	/
CCc1nnc(NC(=O)CCN2C(=O)c3ccccc3S2(=O)=O)s1	1.9%	i	-1.2
Cc1cc(NC(=O)Cc2cn3ccsc3n2)n(-c2ccccc2)n1	-0.1%	i	-0.99
CCCN(CCC)C(=O)c1cc(-c2ccc3c(c2)OCO3)nc2ccccc12	6.0%	i	/
CCN(CC)C(=O)C1CCCN(Cc2ccc3c(c2)OCO3)C1 (centres undefined)	-2.1%	i	/
CCOc1ccccc1NC(=O)c1ccccc1-c1nc(-c2ccccc2OC)no1	-2.1%	i	1.2
CC(C)(C)N1C(=O)c2ccc(C(=O)NCc3ccco3)cc2C1=O	2.9%	i	-1.1
CN1CCC(N(C)C(=O)COc2ccccc2-c2ccccc2)CC1	8.8%	i	-0.86
CC1Cc2ccccc2N1C(=O)COC(=O)Cn1cnc2ccccc2c1=O (centres undefined)	6.0%	i	1.3
CN(C)c1nc(N)nc(CSc2nnnn2-c2cccc3ccccc23)n1	3.9%	i	-0.13
CCCSc1nnc2n(C)c(=O)c3c4c(sc3n12)CCC4	6.9%	i	0.91
Nc1nnc(SCc2ccc(F)cc2)s1	-2.8%	i	-0.5
COc1cccc(NC(=O)CSc2nnc(C)s2)c1	2.0%	i	0.74
C/C=C/Cn1c(SCc2ccc(C)cc2)nc2c1c(=O)[nH]c(=O)n2C	-6.9%	i	0.74
O=c1ccc(Cl)cn1Cc1ccccc1F	-0.8%	i	/
Cn1c(=O)c2c(nc(CN3CCN(c4cccc(Cl)c4)CC3)n2CCc2ccccc2)n(C)c1=O	-3.1%	i	0.35
CCOC(=O)c1c(OCC)[nH]c2c1cc(O)c1ccccc12	1.3%	i	1.9
Cc1cc(C)c(C)c(S(=O)(=O)Nc2ccc(O)cc2)c1C	-4.0%	i	-1.6

Complete entries, looked up by structure. Values in the order: Hsc70 | MT1-MMP reporter | WNV protease inh
`CCCN(CCC)C(=O)c1cc(-c2ccc3c(c2)OCO3)nc2ccccc12` as listed: 6.0% | i | /
`CCOc1cc2[nH]c(=O)n(CC3CCC(C(=O)NC(C)CC)CC3)c(=O)c2cc1OCC` (centres undefined) as listed: 0.7% | i | 0.06
`Nc1nc(CN2CCN(Cc3ccc4c(c3)OCO4)CC2)nc(Nc2ccccc2)n1` as listed: -1.9% | i | 0.2
`O=C(Cn1cnc2ccccc21)Nc1cc(C(F)(F)F)ccc1N1CCOCC1` as listed: 0.2% | i | 1.3
`Cc1nn(C)c(C)c1S(=O)(=O)N(CC(=O)NCCN1CCOCC1)c1ccc(C(C)C)cc1` as listed: -4.8% | i | 0.45
